# From PubChem BioAssay
# IL1B secr inh – blocks inflammasome-driven IL-1 beta release | THP-1 LPS/ATP IL-1B secretion, AlphaLISA, 16 h; hits give low values | 360,000 compounds, 4.7% hits | activity change, % at 57.5 µM | AID 743279; in the data active = activity change below about -50%; inconclusive = mostly about -30% to -49%; also: % is scaled to controls: 0 for no effect and ±100 for the full control effect
#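 Secreted IL-1B measured by AlphaLISA bead assay after 16 h compound exposure of THP-1 cells; compounds (final up to 57.5 uM) added 1 h before LPS (250 ng/mL) and ATP (1.25 mM) stimulation; lower signal means less secretion.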
# KB-V1 cytotox – kills drug-selected multidrug resistant KB-V1 cells; KB-V1 MDR cells viability, CellTiter-Glo, 72 h; Potency, µM (doses to about 46.1 µM), without a hit: top-dose activity change, negative = cytotoxicity, most hits filed as cytotoxic; 400,000 compounds, 3.4% hits; AID 1347076; also: potency is read from the fitted curve at half-maximal effect; % is scaled to controls: 0 for no effect and ±100 for the full control effect; nearly all actives have a fitted effect of over 60% in size
#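 Cytotoxicity toward P-gp-expressing KB-V1 cells was determined as loss of CellTiter-Glo luminescence after 72 h at 37 degrees C. Compounds were tested in quantitative HTS format across a concentration range, with curves fitted to normalized data.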
# HT1080NT lethal – kills 2HG-producing HT-1080-NT fibrosarcoma cells; HT-1080-NT fibrosarcoma viability, CellTiter-Glo ATP luminescence, 48 h; AID 686970; Potency, µM (doses to about 46.1 µM), for the others: top-dose activity, negative = less viability, most hits filed as cytotoxic; 360,000 compounds, 1.6% hits;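 also: NT is the 2HG producing partner of a matched IDH1 knockdown line; potency is read from the fitted curve at half-maximal effect; 0% = DMSO-treated cells and -100% = media-only wells without cells; nearly all actives have a fitted effect of over 55% in size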
#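 A 48-hour cytotoxicity screen used HT-1080-NT cells plated 2 hours before compound delivery. ATP-based CellTiter-Glo luminescence measured viability, normalized to DMSO and no-cell controls.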
# GLP1R ag – activates the human GLP-1 receptor | P43220 | HEK293 GLP-1R CRE-luciferase, luminescence, 4-6 h; cells express a hypersensitive GLP-1R form | Potency, µM (highest dose often 45.6 µM), without a hit: at the top dose activation, usual class: activators | 380,000 compounds, 0.007% hits; also: potency is read from the fitted curve at half-maximal effect; % of control where 0% means no effect
# Target sequence (P43220 whole entry, looked up): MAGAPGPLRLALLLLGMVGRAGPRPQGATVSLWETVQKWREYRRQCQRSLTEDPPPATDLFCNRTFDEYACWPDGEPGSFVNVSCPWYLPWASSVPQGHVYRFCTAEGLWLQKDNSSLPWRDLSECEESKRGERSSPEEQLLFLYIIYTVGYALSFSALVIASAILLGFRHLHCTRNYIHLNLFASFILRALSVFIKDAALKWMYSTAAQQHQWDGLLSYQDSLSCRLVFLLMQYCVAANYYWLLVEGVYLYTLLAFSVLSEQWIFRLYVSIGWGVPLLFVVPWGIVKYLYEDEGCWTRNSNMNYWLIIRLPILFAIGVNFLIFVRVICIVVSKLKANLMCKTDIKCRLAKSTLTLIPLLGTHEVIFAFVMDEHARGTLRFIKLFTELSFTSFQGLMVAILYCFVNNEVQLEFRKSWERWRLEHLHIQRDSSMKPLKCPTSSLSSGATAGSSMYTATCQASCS
# SW480 rerep – DNA re-replication induction in SW480 cells; AID 624297; Potency, µM (series often up to 46.1 µM), without a hit: top-dose re-replication activation, actives largely listed as activators; SW480 DNA re-replication, Hoechst DNA content imaging, 48 h; 340,000 compounds, 1.8% hits; also: potency is read from the fitted curve at half-maximal effect; % of control where 0% means no effect; nearly all actives have a fitted effect of over 55% in size
#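 Treated cells incubate 48 hr (37 C, 5% CO2), are stained 40 min with Hoechst, and nuclear fluorescence is enumerated; a rise in nuclei with high DNA signal marks re-replication.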
# HT1080 IDH1KD tx – kills HT-1080 cells with IDH1 knockdown; Potency, µM (highest dose often 46.1 µM), inactives show at the highest dose activity, negative = toxicity, usual class: cytotoxic; HT-1080 IDH1 knockdown viability, ATP luminescence, 48 h; 360,000 compounds, 2% hits;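 also: potency is read from the fitted curve at half-maximal effect; 0% = DMSO wells and -100% = cell-free medium wells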
#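 Luminescent ATP read-out (CellTiter-Glo, 10 min at room temperature) after 48 h compound exposure at 37 °C gave viability of IDH1-knockdown HT-1080 cells. Activity was normalised to DMSO and cell-free wells, then fitted as concentration-response curves.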
# KB-3-1 tox – KB-3-1 parental cell cytotoxicity. Potency, µM (highest dose often 46.1 µM), without a hit: top-dose activity change, negative = cytotoxic, most hits filed as cytotoxic. 400,000 compounds, 1.4% hits. AID 1347075. KB-3-1 viability, CellTiter-Glo ATP luminescence, 72 h; also: potency is read from the fitted curve at half-maximal effect; % is scaled to controls: 0 for no effect and ±100 for the full control effect; nearly all actives have a fitted effect of over 60% in size
#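 Here the drug-naive KB-3-1 line serves as comparator for MDR sub-line selectivity; cells received compound titrations, 72 h at 37 °C, then CellTiter-Glo readout.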
# Numbers without * were called inactive; ? = inconclusive; / = no result given; & = joins results of further samples; ! = not active in a repeat; [ ] = another dose, or the depositor's remark. Unless noted, calls follow the shape of the dose curve; as a rule, active = well fitted curve in the direction sought with a large enough effect; inconclusive = small, poorly fitted or top-dose-only effect, or another doubt; inactive = no such curve, though single readings can be large; an effect the other way counts as inactive or inconclusive. Not all compounds are listed; the hit share may differ from the screen's.
canonical_smiles	KB-3-1 tox	HT1080 IDH1KD tx	HT1080NT lethal	IL1B secr inh	SW480 rerep	KB-V1 cytotox	GLP1R ag
COc1cc(C(=O)OCCCN2CCCN(CCCOC(=O)c3cc(OC)c(OC)c(OC)c3)CC2)cc(OC)c1OC	-3.3%	?	?	-22.3	?	?	-3.5%&-5.9%
COC(=O)CCC(=O)CN	0.0%	2.0%	27.5%	9.2	-44.6%&0.8%[inhibitor]	-6.1%	-5.3%&-2.5%
CC(C)Oc1ccc2c(=O)c(-c3ccccc3)coc2c1	0.0%	9.4%	?	0.0	-7.5%&1.7%	?	20.2%&0.0%
CCCC(=O)Nc1ncnc2c1ncn2[C@@H]1O[C@@H]2COP(=O)(O)O[C@H]2[C@H]1OC(=O)CCC	0.0%&0.0%	0.0%&3.1%	10.4%&10.6%	23.3&7.3	-43.1%&-5.7%&-42.7%[inhibitor]	-8.2%&3.0%	-3.8%&0.7%
CC(C)NCC(O)c1ccc(NS(C)(=O)=O)cc1 (configuration not stated)	0.0%	16.9%	10.3%	16.0	?	19.7%	15.8%&-26.8%&-4.0%
CCC1(c2ccccc2)NC(=O)N(C)C1=O (configuration not stated)	0.0%	12.7%	4.4%	19.9	10.8%	-6.6%	-1.7%
C=CCN1CCc2cc(O)c(O)cc2C(c2ccccc2)C1 (configuration not stated)	0.0%	14.0%	27.1%	4.4	22.9%	-8.1%	1.2%
CC(C)(Oc1ccc(Cl)cc1)C(=O)O	0.0%	7.9%	36.6%	7.3	-16.4%	17.6%	-5.9%&-3.0%
C/C(=C(/CCO)SSCC1CCCO1)N(C=O)Cc1cnc(C)nc1N (configuration not stated)	0.0%	5.7%	-2.6%	9.2	-5.5%	2.4%	-1.5%
CC(=O)CC(c1ccc([N+](=O)[O-])cc1)c1c(O)c2ccccc2oc1=O (configuration not stated)	0.0%	-1.6%	-18.2%	2.9	-0.5%	-3.2%	-3.3%
CCN1CCC[C@H]1CNC(=O)c1c(OC)ccc(Br)c1OC	0.0%	1.5%	-0.5%	2.8	-40.9%&6.1%[inhibitor]	-0.2%	3.7%&11.1%
COc1ccc(C(=O)NCc2cccnc2)cc1C(=O)NCc1cccnc1	0.0%	-6.3%	22.8%	27.8	-4.2%	12.1%	1.1%
CCC(=O)OCC(=O)C1(OC(=O)CC)[C@H](C)C[C@H]2[C@H]3[C@H]([C@@H](O)C[C@@]21C)[C@@]1(C)C=CC(=O)C=C1C[C@H]3Cl (some centres not stated)	0.0%	?	?	-51.0*	?	-4.7%	-3.2%
O=C(O)CCc1nc2ccccc2[nH]1	/	/	/	/	1.8%	/	-2.2%
N[C@H]1CONC1=O	0.0%	0.4%	-17.5%	-5.6	3.5%	14.7%	6.6%
C=C(c1ccc(C(=O)O)cc1)c1cc2c(cc1C)C(C)(C)CCC2(C)C	/	/	/	/	-0.4%	/	-2.2%
Cc1cc(C(=O)NNCc2ccccc2)no1	0.0%	0.1%	1.5%	12.5	-9.9%	13.9%	-3.7%
CN(C)C(=O)COC(=O)Cc1ccc(OC(=O)c2ccc(N=C(N)N)cc2)cc1	/	/	/	/	1.6%	/	7.0%
OC1C(O)C(O)C(O)C(O)C1O (configuration not stated)	0.0%&0.0%&0.0%	5.5%&4.8%&6.7%	?	10.5&3.2&7.5	-10.9%&3.4%&13.3%&5.5%	4.3%&0.3%&6.0%	0.0%&-2.6%&-6.9%&1.9%
CCC1OC(=O)C(C)[C@@H](O[C@H]2C[C@@](C)(OC)C(O)C(C)O2)C(C)[C@@H](O[C@@H]2OC(C)CC(N(C)C)C2O)[C@@](C)(O)CC(C)C(=O)[C@@H](C)C(O)[C@]1(C)O (some centres not stated)	/	/	/	/	-10.5%	/	-5.2%

# Looked up by structure from above (two):
canonical_smiles	KB-3-1 tox	HT1080 IDH1KD tx	HT1080NT lethal	IL1B secr inh	SW480 rerep	KB-V1 cytotox	GLP1R ag
CCC(=O)OCC(=O)C1(OC(=O)CC)[C@H](C)C[C@H]2[C@H]3[C@H]([C@@H](O)C[C@@]21C)[C@@]1(C)C=CC(=O)C=C1C[C@H]3Cl (some centres not stated)	0.0%	?	?	-51.0*	?	-4.7%	-3.2%
CCN1CCC[C@H]1CNC(=O)c1c(OC)ccc(Br)c1OC	0.0%	1.5%	-0.5%	2.8	-40.9%&6.1%[inhibitor]	-0.2%	3.7%&11.1%

# The list goes on:
canonical_smiles	KB-3-1 tox	HT1080 IDH1KD tx	HT1080NT lethal	IL1B secr inh	SW480 rerep	KB-V1 cytotox	GLP1R ag
CC(C)NCC(O)c1cc(O)cc(O)c1 (configuration not stated)	0.0%	2.3%	20.4%	-24.2	15.8%	1.6%	?
OC[C@H]1O[C@@H]2O[C@H]3[C@H](O)[C@@H](O)[C@@H](O[C@H]4[C@H](O)[C@@H](O)[C@@H](O[C@H]5[C@H](O)[C@@H](O)[C@@H](O[C@H]6[C@H](O)[C@@H](O)[C@@H](O[C@H]7[C@H](O)[C@@H](O)[C@@H](O[C@H]8[C@H](O)[C@@H](O)[C@@H](O[C@H]1[C@H](O)[C@H]2O)O[C@@H]8CO)O[C@@H]7CO)O[C@@H]6CO)O[C@@H]5CO)O[C@@H]4CO)O[C@@H]3CO	/	/	/	/	-2.0%	/	-1.7%
CC1=NS(=O)(=O)c2cc(Cl)ccc2N1	0.0%	4.7%	17.6%	15.2	-6.8%	12.8%	-2.7%&4.0%
Cc1ncc([N+](=O)[O-])n1CC(O)CCl (configuration not stated)	0.0%	-0.3%	-1.2%	6.1	5.6%	17.7%	8.6%
Nc1ncn([C@@H]2O[C@H](CO)[C@@H](O)[C@H]2O)c(=O)n1	?	1.84µM*	1.64µM*	0.0	-22.4%&3.7%	?	-20.5%&-2.6%
CCN(CC)CC(=O)Nc1c(C)cccc1C	0.0%&0.0%&0.0%	17.3%&14.3%&19.3%	?	-5.8&13.3&-3.0	2.6%	1.1%&7.9%&10.2%	-3.5%&-5.6%&-1.0%&0.2%
CC(C)(C)NC(=O)[C@@H]1CC[C@@H]2[C@@H]3CC[C@@H]4NC(=O)C=C[C@@]4(C)[C@H]3CC[C@]21C	/	/	/	/	-9.5%[20.6 µM]	/	-1.9%[19.8 µM]
OC(CCN1CCCCC1)(c1ccccc1)C1CC2C=CC1C2 (configuration not stated)	/	/	/	/	/	/	11.2%
CN(C)CC[C@@H](c1ccc(Br)cc1)c1ccccn1	0.0%	-23.0%	-6.3%	-1.4	-37.8%&-2.4%[inhibitor]	-17.3%	-2.5%&-3.7%
N[C@@H]1CONC1=O	/	/	/	/	-2.5%	/	-4.7%
O[C@@H](c1cc(C(F)(F)F)nc2c(C(F)(F)F)cccc12)[C@H]1CCCCN1	18.4µM*!	20.6µM*	9.2µM*	?	?	?	-6.5%&-6.7%
O=C(C1CCCCC1)N1CC(=O)N2CCc3ccccc3[C@@H]2C1	/	/	/	/	-6.1%	/	13.2%
CC1(C)SC2C(NC(=O)COc3ccccc3)C(=O)N2C1C(=O)O (configuration not stated)	0.0%&-3.9%	2.4%&-0.1%	2.1%&0.3%	9.0&6.5	-6.4%&5.4%	?	8.5%&7.4%
CCN(CC)CCC[C@H](C)Nc1ccnc2cc(Cl)ccc12	/	/	/	/	-0.2%	/	-6.0%
CCCCOc1ccc(OCCCN2CCOCC2)cc1	0.0%	2.8%	-25.4%	-24.3	-7.0%	?	-4.7%
O=C1CCc2ccc(OCCCCN3CCN(c4cccc(Cl)c4Cl)CC3)cc2N1	?	3.3%	25.0%	20.2	?	?	-1.0%&5.8%
COc1ccc2[nH]cc(CCNC(C)=O)c2c1	0.0%	0.5%	25.5%	6.6	?	-1.6%	2.0%&4.4%
Fc1ccc(C(c2ccc(F)cc2)N2CCN(C/C=C/c3ccccc3)CC2)cc1	?	?	?	-11.8	?	?	-0.3%
C=C1/C(=C\C=C2/CCC[C@]3(C)[C@@H]([C@H](C)CCCC(C)(C)O)CC[C@@H]23)C[C@@H](O)C[C@@H]1O	/	/	/	/	1.5%	/	-4.2%
CCCCc1nc(Cl)c(CO)n1Cc1ccc(-c2ccccc2-c2nnn[nH]2)cc1	0.0%	9.8%	22.0%	23.2	9.0%	3.3%	1.2%

# Further results follow:
canonical_smiles	KB-3-1 tox	HT1080 IDH1KD tx	HT1080NT lethal	IL1B secr inh	SW480 rerep	KB-V1 cytotox	GLP1R ag
CN1CCC(OC(c2ccccc2)c2ccccc2)CC1	0.0%	-15.6%	1.4%	-19.9	-3.5%	-23.5%	-4.3%
Nc1ccc(O)c(C(=O)O)c1	/	/	/	/	-7.7%	/	-0.2%
COc1cccc(OC)c1C(=O)NC1C(=O)N2C1SC(C)(C)C2C(=O)O (configuration not stated)	/	/	/	/	-6.2%	/	1.1%
CC(=O)O[C@H]1C(=O)[C@]2(C)[C@H]([C@H](OC(=O)c3ccccc3)[C@]3(O)C[C@H](OC(=O)[C@H](O)[C@@H](NC(=O)c4ccccc4)c4ccccc4)C(C)=C1C3(C)C)[C@]1(OC(C)=O)CO[C@@H]1C[C@@H]2O	0.164µM*	0.0146µM*	?	6.0	?	18.4µM*	8.6%
Oc1c(Cl)cc(Cl)cc1Sc1cc(Cl)cc(Cl)c1O	/	/	/	/	?	/	-4.7%
CCCC(=O)Nc1ncnc2c1ncn2C1OC2COP(=O)(O)OC2C1OC(=O)CCC (configuration not stated)	/	/	/	/	-1.4%	/	-6.4%
Nc1ncnc2c1ncn2C1OC(CO)C(O)C1O (configuration not stated)	-14.7%	20.7%	19.2%	-15.2	11.3%	12.2%	3.0%
CN1CCN(CC(=O)N2c3ccccc3C(=O)Nc3cccnc32)CC1	/	/	/	/	-6.1%	/	-2.0%
CN(C)CCC(c1ccc(Br)cc1)c1ccccn1 (configuration not stated)	-0.9%&0.0%&0.0%	?	?	-3.8&-23.9&-4.1	9.9%&-3.1%&-10.7%	?	-1.7%&-3.7%&-3.8%
CC(C)(C)NC(=O)[C@@H]1CN(Cc2cccnc2)CCN1C[C@@H](O)C[C@@H](Cc1ccccc1)C(=O)N[C@H]1c2ccccc2C[C@H]1O	0.0%	2.7%	-0.3%	-22.7	-39.8%[inhibitor]	0.5%	7.6%
CC[C@H]1NC(=O)c2cc(S(N)(=O)=O)c(Cl)cc2N1	/	/	/	/	2.2%[20.6 µM]	/	10.5%[19.8 µM]
OCC(O)[C@@H](O[C@H]1O[C@H](CO)[C@@H](O)[C@H](O)[C@H]1O)[C@H](O)[C@@H](O)CO (some centres not stated)	0.0%	-8.5%	-1.3%	29.0	-74.3%[inhibitor]	14.5%	8.4%
OCCOCCN1CCN(C2=Nc3ccccc3Sc3ccccc32)CC1	0.0%&0.0%	-18.2%&-22.8%	-5.6%&-26.9%	-14.9&11.0	-9.5%&11.2%&-6.6%	-26.1%&-24.2%	6.9%&5.8%&-3.1%
